Bioassay records from PubChem.
Lassa entry inh: inhibitors of Lassa virus binding or cell entry; Potency, µM (doses to about 37.9 µM), without a hit: at the top dose activity change, negative = inhibition, usual class: inhibitors; 300,000 tested, 1.2% active; Lassa virus pseudotype entry inhibition, cell reporter; control for the full effect not named in the record; active means well fitted inhibition curve with a large enough effect; inconclusive means small, poorly fitted or top-dose-only effect, or effect the other way; inactive means flat fitted curve, though single readings scatter; tested in HEK293 cells; note: % is set by controls: 0 for no effect and ±100 for the full control effect; nearly all actives have a fitted effect of over 50% in size; luciferase read-out
NS1 function inh: blocks influenza NS1 protein function. Potency, µM (top dose mostly 46.1 µM), for inactives: top-dose activity, positive = more growth. S. cerevisiae slowed by influenza A NS1, growth recovery by OD600. 270,000 tested, 0.4% active; note: actives are rising curves; nearly all actives have a fitted effect of over 50% in size
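In this qHTS, NS1 from influenza A is expressed in budding yeast, where it slows growth. Cells are switched from glucose to 2% galactose medium (pH 6.0, -URA), treated with compound, and growth recovery is read at OD600.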
RE007 growth inh: less growth of the S. pombe RE007 Vpr strain; Potency, µM (doses to about 92.2 µM), for inactives: top-dose activity change, negative = less growth; S. pombe RE007 Vpr strain, BacTiter-Glo ATP luminescence, 24 h; control for the full effect not named in the record; AID 651644; 360,000 tested, 0.21% active; active = well fitted falling curve with a large enough effect; inconclusive = small, poorly fitted or top-dose-only effect; inactive = no such curve, though single readings can be large or run the other way;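 note: % is set by controls: 0 for no effect and ±100 for the full control effect; nearly all actives have a fitted effect of over 50% in size; the assay follows cell death caused by Vpr and the record does not say whether a fall means rescue or toxicity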
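Fission yeast RE007 carrying one integrated HIV-1 vpr copy, seeded at OD 0.01 in PMG+AL medium with 23 nL pinned compound. Grown 24 h at 30 degrees; viability read by BacTiter-Glo luminescence after 5 min.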
StopGo reporter: lowers the luciferase signal of an FMDV 2A StopGo reporter. 410,000 tested, 1.2% active. human cells with a luciferase reporter of 2A StopGo recoding; control for the full effect not named in the record. Potency, µM (doses to about 57.9 µM), without a hit: top-dose signal change, negative = less light. AID 1159524; active = well fitted falling curve with a large enough effect; inconclusive = small, poorly fitted or top-dose-only effect; inactive = no such curve, though single readings can be large or run the other way; tested in HEK293T cells; note: % is set by controls: 0 for no effect and ±100 for the full control effect; nearly all actives have a fitted effect of over 45% in size; luciferase light after 4 h
MARV entry inh: blocks Marburg virus binding to or entry into cells | Marburg virus pseudotyped entry inhibition, cell reporter; control for the full effect not named in the record; about a third of the inactives were read at about 46 µM | Potency, µM (top dose mostly 37.8 µM), inactives show at the highest dose activity change, negative = inhibition, actives largely listed as inhibitors | 300,000 tested, 1.8% active; active = well fitted inhibition curve with a large enough effect; inconclusive = small, poorly fitted or top-dose-only effect, or effect the other way; inactive = flat fitted curve, though single readings scatter; tested in HEK293 cells; about a fifth of its hits are not listed in these tables; note: % is set by controls: 0 for no effect and ±100 for the full control effect; luciferase read-out
SARS PLpro yeast: blocks SARS-CoV papain-like protease in a yeast assay. AID 485353. 330,000 tested, 0.19% active. Potency, µM (doses to about 32.9 µM), for the others: top-dose activity, positive = growth rescue. S. cerevisiae expressing SARS-CoV PLpro, growth rescue; control for the full effect not named in the record; note: 0% is about no effect; nearly all actives have a fitted effect of over 55% in size; growth read by luminescence after 48 h
Cruzain Triton: blocks cruzain activity in presence of Triton detergent | P25779 | purified cruzain, Z-FR-AMC fluorescence, 0.01% Triton | Potency, µM, without a hit: max response, negative = inhibition, most hits filed as inhibitors | 200,000 tested, 0.43% active; active = well fitted curve in the direction sought with a large enough effect; inconclusive = small, poorly fitted or top-dose-only effect, or another doubt; inactive = no such curve, though single readings can be large; an effect the other way counts as inactive or inconclusive;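 note: plate controls were neutral wells for no effect and buffer without enzyme for full effect; nearly all actives have a fitted effect of over 40% in size; top concentration of the series not given in the record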
Target sequence (P25779 123-467 limits assumed): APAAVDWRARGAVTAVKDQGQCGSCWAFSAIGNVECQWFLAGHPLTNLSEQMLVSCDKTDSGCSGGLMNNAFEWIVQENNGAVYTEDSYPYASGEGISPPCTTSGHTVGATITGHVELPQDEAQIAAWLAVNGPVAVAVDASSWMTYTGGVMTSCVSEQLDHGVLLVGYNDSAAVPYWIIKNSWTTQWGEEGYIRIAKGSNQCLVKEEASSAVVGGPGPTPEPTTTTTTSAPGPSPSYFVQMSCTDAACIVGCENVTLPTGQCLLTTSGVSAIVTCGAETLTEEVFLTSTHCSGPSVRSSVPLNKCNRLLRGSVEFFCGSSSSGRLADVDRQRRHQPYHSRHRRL
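15 min RT preincubation of 1.5 nM cruzain with compound, then 2 uM Z-FR-AMC added; kinetic AMC fluorescence, 60 s delta. Triton X-100 0.01%, pH 5.5.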
Cruzain inh noDet: blocks cruzain activity in detergent-free assay; Potency, µM, without a hit: max response, negative = inhibition, usual class: inhibitors; AID 1476; 200,000 tested, 2.3% active; purified cruzain, Z-FR-AMC fluorescence, no detergent; active = well fitted curve in the direction sought with a large enough effect; inconclusive = small, poorly fitted or top-dose-only effect, or another doubt; inactive = no such curve, though single readings can be large; an effect the other way counts as inactive or inconclusive;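 note: plate controls were enzyme without inhibitor for no effect and buffer without enzyme for full effect; nearly all actives have a fitted effect of over 40% in size; top concentration of the series not given in the record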
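Detergent-free condition (0.00005% Triton X-100) in acetate buffer pH 5.5 with DTT. 1.5 nM enzyme and compound were pre-mixed 15 min, then 2 uM Z-FR-AMC substrate added; reaction progress from fluorescence change between first and third reads (60 s).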
* = called active by the depositor; ? = inconclusive; . = not tested or not shown; & = joins results of further samples; [ ] = remark or other dose. Unless noted, calls come from the whole dose curve; as a rule, active means well fitted rising curve with a large enough effect; inconclusive means small, poorly fitted or top-dose-only effect; inactive means no such curve, though single readings can be large or run the other way. Potency is the fitted concentration of half-maximal effect.

SMILES | Lassa entry inh | NS1 function inh | RE007 growth inh | StopGo reporter | MARV entry inh | SARS PLpro yeast | Cruzain Triton | Cruzain inh noDet
CCCc1nc2ccccc2c(=O)n1NC(=O)c1c(O)c2ccccc2n(C)c1=O | ? | 4% | -2% | -24% | . | 1% | . | .
NP(=O)(Nc1ccccc1)Nc1ccccc1 | 0%[46.1 µM] | . | 3% | -4% | 10%[46.1 µM] | . | . | .
CCCn1c(=O)c2c(nc3n2CCS3)n(C)c1=O | 1%[46.1 µM] | . | -2% | -6% | ? | -4% | . | .
COc1cccc(NC(=O)N2CCN3CCCCC3C2)c1 (stereo not drawn) | ? | . | . | 6% | . | . | 0.6% | 7%
O=C(COC(=O)c1c(Cl)cccc1Cl)Nc1ccccc1Br | 2% | -17% | -20% | 0% | -29% | -24% | -7.9% | -1%
Cc1ccc(CNC(=O)CS(=O)(=O)c2cn(CC(=O)N3CCOCC3)c3ccccc23)cc1 | . | 2% | 5% | 0% | . | 4% | . | .
Cc1ccc(S(=O)(=O)N2CCN(CCO)CC2)cc1-c1nnc2c3ccccc3c(C)nn12 | -7% | -7% | -4% | -4% | -11%&-11% | . | . | .
COc1cccc(C(=O)Nc2nc3nc(C)c(C)c(=O)n3[nH]2)c1 | ? | . | . | -11% | 20%[46.1 µM] | . | 3.1% | 3%
O=C(COc1ccccc1)Nc1nnc(S(=O)(=O)N2CCCC2)s1 | 15%&11%[46.1 µM] | 4% | -1% | -11%&23% | -31%&-31%[46.1 µM] | -18% | -1.5% | -9%
CCC(OCC(O)CN1CCCCC1)c1ccccc1 (stereo not drawn) | . | -10% | 0% | -1% | . | -6% | . | .
COc1ccc(CN2C(=NC(=O)c3ccccc3)SC3CS(=O)(=O)CC32)cc1OC (stereo not drawn) | -11%[46.1 µM] | 4% | 0% | -20% | -18%[46.1 µM] | 0% | . | .
CC1CCCC(NC(=O)COC(=O)Cc2ccccc2)C1C (stereo not drawn) | 0% | -7% | ? | 9% | ? | -5% | 2.3% | 3%
O=C(NC1CC2CCCC(C1)N2C(=O)NCc1ccccc1)C1CC1 (stereo not drawn) | 14% | 1% | 25% | -8% | ? | -6% | 0.4% | -1%
COc1cc(CC2C(=O)N(C)C(=O)N(C)C2=O)ccc1OCc1ccccc1 | 14% | ? | -5% | 70%[activator] | -2% | 10% | 1.8% | 4%
CCOCCCNC(=O)Cn1cnc2c(cnn2-c2ccc(C)c(C)c2)c1=O | -10%[46.1 µM] | 1% | 10% | 14% | ? | 1% | . | .
Cc1onc(-c2ccccc2Cl)c1C(=O)Nc1cnn(Cc2ccccc2)c1 | . | -32% | 4% | -10% | . | 3% | -1.7% | -6%
CC(Sc1ccccc1)C(=O)N1CCN(S(=O)(=O)c2ccc(Cl)cc2)CC1 (stereo not drawn) | . | -8% | 1% | -13% | -6%[46.1 µM] | -6% | . | .
O=C(N/N=C/c1cccn1-c1ccc([N+](=O)[O-])cc1)c1cccnc1 | ? | 1% | 0% | ? | ? | 0% | . | .
COc1cccc(C(=O)NNC(=O)c2ccc(NS(=O)(=O)c3cccs3)cc2)c1OC | 4% | . | -19% | -8% | 0% | -1% | . | .
COc1ccc2oc(=O)cc(CN3CCN(c4ccccc4OC)CC3)c2c1 | 7%[46.1 µM] | . | . | -2% | 14%[46.1 µM] | . | 0.4% | -15%
Cc1ccc(S(=O)(=O)N/N=C\c2ccc3c(c2)OCO3)c(C)c1 | -16%[46.1 µM] | -31% | 2% | 48%[activator] | -3%[46.1 µM] | -8% | . | .
Cc1cccc(NC(=O)CCC(=O)N/N=C/c2ccco2)c1C | 11% | 16% | . | -9% | ? | -8% | -1.0% | -3%
Cc1[nH]c2ccc(-c3n[nH]c(=S)n3C)cc2c1C | -28% | 3% | -7% | . | -19% | -2% | -20% | -6%
Cc1ccc(C)c(N2CCN(S(=O)(=O)c3c(C(=O)N4CCC(C)CC4)c(C)n(C)c3C)CC2)c1 | ? | . | . | -11% | . | . | -5.7% | ?
COc1ccc2c(c1)CCc1c(C(=O)Nc3cc(C)ccc3O)noc1-2 | 3%[46.1 µM] | . | . | 22% | ? | . | -2.2% | ?
COc1cc(/C=N\NC(=O)c2c(C)nc3cc(C)ccn23)ccc1O | 8% | 2% | -17% | -20% | 15%[46.1 µM] | 0% | . | .
NC(=O)CN1CCOCCN(CC(N)=O)CCOCC1 | 16% | 5% | -4% | 11% | -10% | 1% | 4.3% | -1%
CC1CCN(S(=O)(=O)c2ccc3c(c2)c(=O)c(C(=O)NCc2ccccc2Cl)cn3C)CC1 | 9% | 9% | . | . | 25% | -4% | -4.3% | 13%
COc1ccc(/C=N/OCC(=O)N2CC3(C)CC2CC(C)(C)C3)cc1OC (stereo not drawn) | -22% | -13% | 3% | . | -17% | 1% | 6.3% | 5%
O=C(O)c1cccc(S(=O)(=O)Nc2ccccc2Cc2ccccc2)c1 | 21%[46.1 µM] | 6% | 5% | 0% | ? | 1% | . | .
NCC(c1ccccc1)(c1ccccc1)c1ccccc1 | 1% | -8% | 5% | -25% | 7.9µM* | -37% | 1.0% | -2%
COc1cc(C2CC(=O)c3cnc(NC(=O)c4ccco4)nc3C2)cc(OC)c1OC (stereo not drawn) | . | 6% | -3% | -7% | 11%[46.1 µM] | 11% | . | .
NS(=O)(=O)c1ccc(NC(=O)CSc2ccccn2)cc1 | 21% | -12% | 7% | 0% | -10% | 9% | 0.9% | -6%
CC(=O)c1cnc(Nc2cccc(Cl)c2Cl)s1 | . | -8% | 11% | 45%[activator] | 8%[46.1 µM] | -1% | . | .
Cc1ccc(-c2nn(CC(=O)NC3CCCC3)c3c2cnc2ccc(F)cc23)cc1C | ? | . | . | 33%[activator] | . | . | -1.9% | 9%
COc1ccc(NC(=S)N2CCC(C(=O)c3ccc(C)cc3)CC2)c(OC)c1 | . | 7% | 5% | -5% | . | -1% | . | .
CC(NS(=O)(=O)c1ccc(OCC(=O)Nc2cccc([N+](=O)[O-])c2)cc1)c1ccccc1 (stereo not drawn) | ? | 18% | -9% | ? | ? | -1% | -7.0% | 20%
COC(=O)CSc1nnc(CSc2nc(C)cc(C)n2)o1 | 3% | -10% | -2% | 5% | ? | -2% | -0.3% | -7%
Cc1ccc2[nH]c3c(c2c1)CCCC3NCCO (stereo not drawn) | ? | -4% | -12% | -22% | -29% | -3% | . | .
O=C(CN1C(=O)NC2(CCCCC2)C1=O)NCCc1c[nH]c2ccccc12 | -1% | 13% | 2% | -12% | 24% | 1% | . | .
CN1C(=O)Cc2cc(S(=O)(=O)NCc3cccs3)ccc21 | -9% | 12% | 3% | 111%[activator] | -2%[46.1 µM] | 1% | . | .
O=C(Nc1nonc1-c1ccc(Cl)cc1)c1ccco1 | . | -55% | -25% | 3% | . | -6% | . | .
Cc1cc(C)c(S(=O)(=O)n2ccc3ccccc32)c(C)c1 | 1% | -21% | -17% | ? | 0% | -21% | -0.8% | -6%
O=C(COC(=O)c1ccc(Cl)nc1)Nc1ccc2c(c1)OCO2 | 10%[46.1 µM] | . | -21% | -15% | -12%[46.1 µM] | 2% | . | .
COc1ccc(Cc2nnc(C(=O)NCCCN3CCN(c4ccccc4F)CC3)o2)cc1OC | -28%[46.1 µM] | . | . | ? | . | . | -0.1% | ?
NS(=O)(=O)c1ccc(CCNC2CC(=O)N(Cc3ccccc3)C2=O)cc1 (stereo not drawn) | 23% | 0% | -18% | . | -3% | ? | -2.4% | -1%
O=C(NCC1CCCO1)C1CC(c2ccccc2Cl)=NO1 (stereo not drawn) | 5% | -8% | -13% | 26% | 21% | 1% | -3.7% | -8%
COc1ccc(NC(=O)c2ccc(S(=O)(=O)N(C)C)cc2)cc1 | 6% | -2% | -19% | 4% | 12%[46.1 µM] | 0% | . | .
O=c1[nH]c(C2CCCN(S(=O)(=O)c3ccc(F)cc3)C2)nc2c1nnn2Cc1ccccc1 (stereo not drawn) | -14% | -28% | -9% | -22% | -2% | -3% | -1.0% | 7%
CN(C)S(=O)(=O)c1cccc(NC(=O)Cc2ccc(-c3ccccc3)cc2)c1 | ? | -16% | 5% | -26% | ? | . | . | .
O=C(NCCc1cccs1)C1CC(c2ccc([N+](=O)[O-])cc2)=NO1 (stereo not drawn) | . | -49% | 9% | 19% | . | 1% | -12% | 1%
COc1cc(COc2ccc(-c3nnco3)cc2)ccc1OC(F)F | 0% | -7% | 5% | -3% | 10% | 10% | . | .
Cc1ccc(OCC(=O)Nc2ccc(Cl)c(-c3nc4ncccc4o3)c2)cc1C | 10%[46.1 µM] | . | . | 0% | . | . | -4.6% | -6%
Cc1ccc(NC(=O)COC(=O)CCC(=O)c2ccc(C(C)(C)C)cc2)c([N+](=O)[O-])c1 | 10% | 11% | 8% | -10% | 3% | ? | -8.0% | -19%
CCc1ccc2c(c1)C(c1cccs1)=NNC(c1cccnc1)=N2 | 4% | 9% | 1%[3.69 µM] | -19% | -28% | 4% | -7.1% | -2%
Cc1occc1C(=O)NCCc1ccc(Cl)cc1 | 17% | -64% | -11% | 45%[activator] | -3% | -13% | -2.1% | -7%
Cc1ccccc1NC1=NCC(C)S1 (stereo not drawn) | 5% | -29% | 1% | 0% | 0% | -1% | 3.4% | -6%
CC(C)C[C@@H](C(=O)NC1CC1)N1C(=O)N2CCc3c([nH]c4ccccc34)[C@@]2(C)C1=O | . | 0% | -6% | -26% | . | 5% | . | .
O=C(N/N=C/c1ccc2c(c1)OCO2)c1ccc2c(c1)OCO2 | -13%[46.1 µM] | 5% | -4% | 9% | ? | -2% | . | .
CCOc1ccc(OCC(=O)OCC(=O)Nc2ccc3[nH]c(=O)[nH]c3c2)cc1 | 7% | . | 2% | -18% | 0% | 2% | . | .
Cc1cccc(-n2nc(C)c(C(=O)Nc3cc(C)ccc3C)c2-n2cccc2)c1 | -11%[46.1 µM] | . | . | ? | . | . | -5.3% | -9%
N#Cc1cccc(NC(=O)c2nc(-c3ccccc3)n(-c3ccccc3)n2)c1 | ? | 19% | 11% | ? | ? | -2% | 1.3% | -9%
